# VDR inh = inhibitors of human vitamin D receptor; VDR-SRC2-3 peptide fluorescence polarization, 2 h; Potency, µM, without a hit: max response, negative = inhibition, actives largely listed as inhibitors; 400,000 compounds, 0.93% hits; active = well fitted inhibition curve with a large enough effect; inconclusive = small, poorly fitted or top-dose-only effect, or another doubt; inactive = no such curve, though single readings can be large or run the other way; note: series mostly up to about 120 µM
# Target sequence (P11473 whole entry, looked up): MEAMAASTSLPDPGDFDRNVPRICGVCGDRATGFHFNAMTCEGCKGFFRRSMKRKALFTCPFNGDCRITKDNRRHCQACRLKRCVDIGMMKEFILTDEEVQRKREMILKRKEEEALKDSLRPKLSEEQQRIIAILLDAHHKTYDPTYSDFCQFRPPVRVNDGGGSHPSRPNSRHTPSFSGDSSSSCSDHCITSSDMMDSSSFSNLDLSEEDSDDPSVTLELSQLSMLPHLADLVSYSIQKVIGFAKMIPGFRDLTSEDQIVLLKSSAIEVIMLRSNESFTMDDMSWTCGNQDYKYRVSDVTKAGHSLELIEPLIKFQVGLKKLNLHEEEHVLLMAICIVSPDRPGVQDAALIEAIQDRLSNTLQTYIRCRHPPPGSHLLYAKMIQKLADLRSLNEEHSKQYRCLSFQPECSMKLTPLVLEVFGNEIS
#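 Measured by FP: displacement of SRC2-3 coactivator peptide from VDR by library compounds, following a two-hour ambient incubation.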
# Numbers without * were called inactive; u = inconclusive; [ ] = another dose, or the depositor's remark. % is set by controls: 0 for no effect and ±100 for the full control effect; potency is the fitted concentration of half-maximal effect.
SMILES,VDR inh
COc1ccc(C(=O)Nc2cccc(OCc3cc(=O)n4c5c(sc4n3)CCCC5)c2)cc1OC,-11.2%
COC(CNC(=O)[C@H](CSCc1ccccc1)N1Cc2ccccc2C1=O)OC,1.7%
NS(=O)(=O)c1ccc(CNC(=O)/C=C/c2ccccc2)cc1,-1.5%
C=CCn1cnc2c(c1=O)c1nc3ccccc3nc1n2/N=C/c1ccccn1,-4.4%
CCOC(=O)C1(CCOC)CCN(Cc2ccncc2)CC1,-12.4%
O=C(N/C(=C\c1ccc(Cl)cc1)C(=O)N1CCCCC1)c1ccco1,3.2%
S=C(NC1CCCCC1)N1CCN(c2ncccn2)CC1,-5.0%
O=c1oc2ccccc2cc1-c1nc(-c2cccc(Cl)c2)cs1,8.4%
COC(=O)C1C(=O)/C(=C/N(C)C)C(=O)CC1(C)C (stereo unspecified),3.5%
O=C(CCC(=O)N1CCCCC1)Nc1nnc(C2CCCCC2)s1,-2.1%
CCOC(=O)C1(Cc2ccccc2C)CCCN(C(=O)c2cc(CC)nn2C)C1 (stereo unspecified),-23.5%
CCn1c(SCc2cccc(F)c2)nnc1-c1ccncc1,-1.1%
Cc1ccc(Nc2cc(C)nc3nc(Cc4ccc(Cl)cc4)nn23)cc1,14.6%
CCN(CC)S(=O)(=O)c1ccc(Cl)c(NC(C)=O)c1,4.3%
COc1ccc(NC(=O)COC(=O)Cn2c(C)nc3ccccc32)cc1OC,0.7%
CNc1nc(-c2ccc(S(=O)(=O)N3CCCCC3)cc2)cs1,-27.6%
O=C(NC(=S)N1CCN(c2ccc(C(F)(F)F)cc2[N+](=O)[O-])CC1)c1cccs1,-0.6%
O=C(NNS(=O)(=O)c1ccc([N+](=O)[O-])cc1)C(=O)Nc1cccc(C(=O)O)c1,4.8%
COC(=O)COc1ccc(S(=O)(=O)NCc2ccc3c(c2)OCO3)cc1C,6.7%
O=c1cc(-c2ccccc2)n2c(SCc3ccc(Br)cc3)nnc2[nH]1,15.1%
CCC(=O)Nc1ccc(Cl)c(-c2nc3ncccc3o2)c1,-9.6%
CCC1(c2ccc(F)cc2)NC(=O)N(CC(=O)NCc2ccc(F)cc2)C1=O (stereo unspecified),-2.0%
Oc1c(C(c2ccccc2F)N2CCCCC2)sc2nc(-c3ccco3)nn12 (stereo unspecified),4.5%
CCN(CC)c1ccc(/C=N/N2C(=O)c3ccccc3C2=O)cc1,-0.5%
CCN(C(=O)CSc1nnc(-c2ccccc2Br)o1)C1CCS(=O)(=O)C1 (stereo unspecified),1.5%
Cc1ccc(C(=O)NCC(=O)NCCc2ccc(S(N)(=O)=O)cc2)s1,6.6%
CCOc1ccc(Nc2oc(/C=C/c3cc(OC)c(OC)c(OC)c3)nc2C#N)cc1,1.9%
CCC(C(=O)OC(C)C(=O)Nc1ccc(Cl)cn1)c1ccccc1 (stereo unspecified),-9.3%
CN(C(=O)CSc1nnc(-c2ccc(Cl)cc2)n1C)C1CCS(=O)(=O)C1 (stereo unspecified),13.3%
COc1ccccc1NS(=O)(=O)c1cc(NC(=O)CCNC(C)=O)ccc1N1CCCCC1,-8.4%
O=C(CNc1cccc(F)c1)N1CCc2ccccc2C1,1.8%
Cc1cc(C)nc(SCC(=O)OCC(=O)Nc2ccccc2)n1,-5.3%
Cc1ccc(S(=O)(=O)N2CCN(C(=O)c3n[nH]c(=O)c4ccccc34)CC2)cc1,8.7%
Cc1cc(C)cc(S(=O)(=O)c2cn(C)c3cc(N4CCN(C)CC4)c(F)cc3c2=O)c1,-11.7%
C/C(=N\NC(=O)CSc1nc2ccccc2s1)c1cccnc1,-4.6%
COc1ccc(NC(=O)COC(=O)C23CCC(=O)N2c2ccccc2S3)cc1 (stereo unspecified),-5.5%
CC(Oc1ccc(Br)cc1)C(=O)Nc1ccc(S(=O)(=O)NC2=NCCCCC2)cc1 (stereo unspecified),6.4%
O=C(CCS(=O)(=O)c1cccc2nonc12)Nc1cccc(F)c1,-15.7%
O=C1c2ccccc2-c2nnc(-c3ccccc3)cc21,2.6%
CCCNC(=O)COC(=O)c1cc(SC)ccc1Cl,15.9%
Cn1c(CNC(=O)CNC(=O)c2cccc(F)c2)cc(=O)n(C)c1=O,27.8%
Cc1nn(Cc2ccccc2Cl)c(C)c1NC(=O)CCCn1nc(C)c([N+](=O)[O-])c1C,7.8%
Cc1cc(N2CCCC2)ccc1NC(=O)COc1ccccc1,12.8%
O=C(CN(C(=O)c1csnn1)c1ccc(F)c(Cl)c1)NCc1ccc2c(c1)OCO2,4.9%
CCCn1cnc2cc(NCc3cccc(OC)c3)ccc21,7.7%
CCc1cc2c(SC(C)C(=O)NC3CCCC3)ncnc2s1 (stereo unspecified),-12.0%
O=C(O)C(c1ccccc1)C1CCCCC1O (stereo unspecified),2.4%
COc1cccc(-n2nnc3c(=O)n(Cc4ccc(F)cc4)cnc32)c1,-12.4%
C=CCNC(=S)N1CCN(c2ncc3c(=O)c(C(=O)O)cn(CC)c3n2)CC1,-1.3%
COc1cc(-c2cc(C(=O)Nc3ccc(S(N)(=O)=O)cc3)c3ccccc3n2)cc(OC)c1OC,6.1%
CC(C)(C)OC(=O)CC[C@@H](C(=O)N1CCN(C(=O)OC(C)(C)C)CC1)n1cc(C(Cc2ccc(O)cc2)NC(=O)OC(C)(C)C)nn1 (stereo partly specified),-8.1%
CCCn1c(SCC(=O)NCc2ccc(C)cc2)n[nH]c1=O,19.8%
Cc1c(O)cc2c(c1O)C(=O)CC(c1ccc(O)cc1)O2 (stereo unspecified),u
CC1(C(=O)Nc2nc3ccccc3s2)CC1(Br)Br (stereo unspecified),27.5%
COc1ccc(CN2CCNC(=O)C2CC(=O)NCC2CCOCC2)c(F)c1 (stereo unspecified),-10.4%
CCCCOc1ccc(-c2nonc2NC(=O)c2ccco2)cc1,6.5%
CCCn1c(=O)[nH]c2ccccc21,24.8%
FC(F)(F)c1cccc(Cc2noc(CN3CCCC(OCc4ccccn4)C3)n2)c1 (stereo unspecified),-1.7%
CCOc1ccc(NC(=O)COn2nnc3ccc(S(=O)(=O)N4CCOCC4)cc32)cc1,-11.7%
C#CCOCCOCCOCCNc1nc(N2CCN(C(=O)C(Cc3cc4ccccc4[nH]3)n3cc(C(N)Cc4ccc(O)cc4)nn3)CC2)nc(N2CCN(C(=O)C(Cc3cc4ccccc4[nH]3)n3cc(C(N)Cc4ccc(O)cc4)nn3)CC2)n1 (stereo unspecified),96.6%[activator]

# Five entries from above, with values ahead of the structure.
VDR inh,molecule
-10.4%,COc1ccc(CN2CCNC(=O)C2CC(=O)NCC2CCOCC2)c(F)c1 (stereo unspecified)
6.1%,COc1cc(-c2cc(C(=O)Nc3ccc(S(N)(=O)=O)cc3)c3ccccc3n2)cc(OC)c1OC
27.8%,Cn1c(CNC(=O)CNC(=O)c2cccc(F)c2)cc(=O)n(C)c1=O
-12.4%,COc1cccc(-n2nnc3c(=O)n(Cc4ccc(F)cc4)cnc32)c1
6.5%,CCCCOc1ccc(-c2nonc2NC(=O)c2ccco2)cc1

# Two entries from above, with each value named:
> CCCCOc1ccc(-c2nonc2NC(=O)c2ccco2)cc1
  VDR inh: 6.5%
> CCCn1c(=O)[nH]c2ccccc21
  VDR inh: 24.8%

# Following part:
SMILES,VDR inh
COc1ccc(-n2ccnc(SCC(=O)NC3CCCC3)c2=O)cc1OC,u
CC1CCCCN1C(=O)CSc1nnc2ccccn12 (stereo unspecified),-19.6%
CCCOc1ccc(N2C(=O)CC(N(O)c3ccccc3)C2=O)cc1 (stereo unspecified),-5.8%
COc1ccc(S(=O)(=O)NCC(c2ccc(N(C)C)cc2)N2CCCC2)cc1F (stereo unspecified),1.5%
CN(CCc1ccccc1)C(=O)c1cccc(NC(=O)Cc2cccc(NC(=O)C3CCN(C(=O)C4CCCC4)CC3)c2)c1,-19.5%
Cn1c(SCc2nc3ccccc3c(=O)[nH]2)nnc1-c1ccco1,10.1%
CN(c1ccccc1)S(=O)(=O)c1cccc(NC(=O)CSc2nccc(=O)[nH]2)c1,-11.0%
O=C(NNC(=O)c1ccc2ccccc2c1)c1ccc(Cl)cc1,18.2%
COc1cc(Br)cc2cc(C(=O)OC3CCN(C)CC3)c(=O)oc12,17.8%
CN1CCC(N(C)S(=O)(=O)c2ccc(NC(=O)c3cccc(C#N)c3)cc2)CC1,-12.4%
O=S1(=O)CCOC[C@H](c2ccccc2)N1Cc1cccc(F)c1,-18.0%
Cc1cccc(-n2ncc3c(N4CC(C)CC(C)C4)ncnc32)c1 (stereo unspecified),0.3%
Cc1c2c(n3c(nc4ccccc43)c1C#N)N(CCN1CCOCC1)CC2,0.2%
Cc1nc2c(-c3ccc(Cl)cc3)c(C)[nH]n2c(=O)c1Cc1ccccc1,13.5%
COCCNC(=O)CCCn1c(SCc2ccccc2C)nc2c(sc3ccccc32)c1=O,10.0%
O=C(CSc1nnc(SCc2ccc(Cl)cc2)s1)N/N=C/c1c[nH]c2ccccc12,-22.6%
Cc1cccc(C(=O)Nc2ccccc2NC(=O)c2cccc(C)c2)c1,23.5%
Cc1ccc(-c2n[nH]c(=S)n2/N=C/c2sccc2C)cc1,-1.6%
CCCCCCCCCS(=O)(=O)N/N=C/c1cccc([N+](=O)[O-])c1,-5.5%
O=C(CN1CCCC1=O)NC1CCCc2c1cnn2-c1cc(F)cc(F)c1 (stereo unspecified),-4.5%

# 4 records picked at random from those above:
SMILES,VDR inh
O=C(CSc1nnc(SCc2ccc(Cl)cc2)s1)N/N=C/c1c[nH]c2ccccc12,-22.6%
Cc1cccc(-n2ncc3c(N4CC(C)CC(C)C4)ncnc32)c1 (stereo unspecified),0.3%
COc1ccc(S(=O)(=O)NCC(c2ccc(N(C)C)cc2)N2CCCC2)cc1F (stereo unspecified),1.5%
CC1CCCCN1C(=O)CSc1nnc2ccccn12 (stereo unspecified),-19.6%

# Next section:
SMILES,VDR inh
CS(=O)(=O)N1CCCC(C(=O)Nc2ccc(F)c(F)c2)C1 (stereo unspecified),-1.1%
CC1CCCC12NC(=O)NC2=O (stereo unspecified),-0.7%
CCOC(=O)CNC(=O)c1ccc2c(c1)OCCO2,0.9%
COc1ccc(OC)c(S(=O)(=O)N2Cc3ccccc3CC2C(=O)Nc2ccc(C)cc2C)c1 (stereo unspecified),12.2%
C/C(=N\NC(=O)CNC(=O)C1COc2ccccc2O1)c1ccc(Cl)cc1 (stereo unspecified),-2.0%
COc1ccc(-n2cnnc2SCC(=O)Nc2cccnc2Cl)cc1,-0.9%
CN(CCC#N)C(=O)COC(=O)c1ccc(Cl)c(S(=O)(=O)N(C)c2ccccc2)c1,-10.4%
CCCOC(=O)CCn1c(=S)oc2ccccc21,-9.6%
CCCNC(=O)c1ccccc1NC(=O)COc1cccc2c1OC(C)(C)C2,-23.1%
COC(=O)C1(CCSC)NC(c2ccccc2OC)C2C(=O)N(C)C(=O)C21 (stereo unspecified),3.0%
COc1cccc(C(=O)NNC(=O)C2CC(C)=C(C)CC2C(=O)O)c1 (stereo unspecified),-14.2%
O=C(NCCc1c[nH]c2ccccc12)C1CCN(Cc2ccc(Br)cc2)CC1,-7.6%
CC(c1ccccc1)n1c(Br)nc2c1c(=O)[nH]c(=O)n2C (stereo unspecified),-11.4%
CCOc1cccc2sc(N(CCCN(C)C)C(=O)c3ccc(S(=O)(=O)N(C)c4ccccc4)cc3)nc12,4.1%
Cc1ccc(Cl)cc1N1CCN(CCCNC(=O)c2nnc(Cc3cccc(Cl)c3)o2)CC1,-19.3%
COc1ccc(OC)c(NC(=O)CSc2nnc(C3CCCCC3)n2N)c1,-5.7%
Cc1ccc(C)c(/C=N/NC(=S)NC(C)C)c1,-7.8%
COc1ccc(OC)c(-c2c[n+](=O)c3c(n2[O-])CCCC3)c1,16.9%
COC(=O)CCC(=O)NNC(=O)c1cccc(Br)c1,6.7%
Cc1ccc2ncccc2c1NC(=S)NC(=O)c1ccccc1,-10.8%
O=C(CSc1nc2c(sc3ccccc32)c(=O)n1CCO)NCc1ccco1,0.4%
Cc1cccc(N2CCN(C(=O)CNC(=O)C3CCCCC3)CC2)c1C,-2.8%
Cc1ccc(S(=O)(=O)Nc2cccnc2)cc1C,-9.2%
O=C(NCCc1c[nH]c2ccccc12)C(=O)NCC(c1ccco1)N1CCN(c2ccccc2F)CC1 (stereo unspecified),-9.9%
CCC(C)(C)n1nnnc1C(c1ccc(OC)c(OC)c1)N1CCN(c2ccc(F)cc2)CC1 (stereo unspecified),2.3%
COc1ccc(Cc2[nH]n3c(=O)cc(C)nc3c2-c2ccccc2)cc1,-12.7%
COc1ccc(C(=O)C(OC(=O)c2ccccc2Cl)c2ccccc2)cc1 (stereo unspecified),-1.9%
CNc1ccc(/C=C/C(=O)c2ccc(C)cc2)cc1[N+](=O)[O-],u
Cc1cc(C)c(OCC(=O)N(C)CC(=O)Nc2ccc(N3CCOCC3)cc2)c(C)c1,3.0%
CCOc1cc(CNCCCN2CCOCC2)cc(Br)c1OCc1ccccc1Cl,-6.7%
[O-]/C(=C(\C(=S)NCc1ccco1)[n+]1ccccc1)c1ccccc1Br,27.8%
O=C(Nc1ncccc1O)c1ccc(Oc2ccccc2)cc1,u
COc1cccc(NC(=O)C(C)N2C(=O)c3ccccc3C2=O)c1 (stereo unspecified),-11.0%
N#Cc1cc(-c2cccc(Cl)c2)c[nH]c1=O,-5.8%
CCOc1ccc(/C=N/OC(C)C(=O)NCc2ccc3c(c2)OCO3)cc1 (stereo unspecified),0.3%

# The list is partial; count on the stated rates, not on these rows.
